# HTT promoter inh – inhibits huntingtin promoter activity. HEK293 HTT promoter firefly luciferase reporter (activity 0% = vehicle and -100% = no light), 24 h. Potency, µM (top dose mostly 57.5 µM), inactives show at the top dose activity change, negative = inhibition, most hits filed as inhibitors. hit rate 0.93% among 48,000. AID 1508623; active means well fitted inhibition curve with a large enough effect; inconclusive means small, poorly fitted or top-dose-only effect; inactive means no such curve, though single readings can be large or run the other way; further: nearly all actives have a fitted effect of over 50% in size
#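 HEK293 cells carrying firefly luciferase reporters were seeded at 2,500 per well in Opti-MEM and cultured for 24 h. They were then treated with compounds at up to 57.5 uM final for 24 h at 37 degrees C before Dual-Glo luminescence readout.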
# PMP22 txn prim – modulates PMP22 transcription in S16 Schwann cells. S16 Pmp22-F2sN Schwann cells (luciferase reporters placed in the Pmp22 gene), FLuc/NLuc coincidence luminescence, 24 h. Potency, µM (series often up to 57.5 µM), inactives show top-dose activity change, negative = inhibition, hits mostly inhibitors. hit rate 2% among 43,000. AID 1508649; active = clear falling dose curves in both reporters; inconclusive = both reporters move, but less clearly or upward; inactive = either reporter flat; the % is the NLuc reporter signal; further: on the % scale 0 is the no-effect control and ±100 the full control effect; some results filed as inactive show a strong effect at the top dose
#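 Luminescent read-out of sequential FLuc and NLuc signals from a reporter embedded in the Pmp22 3' UTR of S16 Schwann cells, taken after 24 h compound exposure at 37C; compounds reducing both signals score as inhibitors of expression.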
# * hit, by the source's call; ? = inconclusive; . = not tested or not shown; & = joins results of further samples; [ ] = remark or other dose. Potency means the concentration at half of the fitted maximal effect.
# Sample of the layout:
SMILES	HTT promoter inh	PMP22 txn prim
CCN(c1ccc(OC)cc1)S(=O)(=O)c1nnc(NC(=O)c2ccccc2Cl)s1	-17.3%	?
CCOc1ccccc1NC(=O)Cn1nc(N2CCN(c3ccccc3)CC2)ccc1=O	-19.3%	-27.8%
CCOc1ccc(C(=O)c2cn(CC(=O)Nc3ccc4c(c3)OCCO4)c3ccc(OC)cc3c2=O)cc1	-14.2%	4.2%

# The listing (from the top)
SMILES	HTT promoter inh	PMP22 txn prim
CCN(c1ccc(OC)cc1)S(=O)(=O)c1nnc(NC(=O)c2ccccc2Cl)s1	-17.3%	?
CCOc1ccccc1NC(=O)Cn1nc(N2CCN(c3ccccc3)CC2)ccc1=O	-19.3%	-27.8%
CCOc1ccc(C(=O)c2cn(CC(=O)Nc3ccc4c(c3)OCCO4)c3ccc(OC)cc3c2=O)cc1	-14.2%	4.2%
Cc1onc(-c2c(Cl)cccc2Cl)c1C(=O)N[C@@H]1C(=O)N2[C@@H]1SC(C)(C)[C@@H]2C(=O)O	5.2%	.
CCn1c2ccccc2c2cc(CN3CCN(Cc4ccccc4C)CC3)ccc21	-17.9%	?
COc1cccc(NC(=O)Cn2nc(C)c3c(C)n(-c4ccccc4)nc3c2=O)c1	-25.2%	-9.8%
CCCCNC(=O)CN1C(=O)COc2ccc(S(=O)(=O)N3CCCC3)cc21	-8.3%	-3.4%
CCOC(=O)c1cccc(NC(=O)N2CC(CC)Sc3ccccc32)c1 (centres undefined)	-0.6%	-13.1%
COC(=O)c1cccc(-n2c(CCC(=O)O)ccc2-c2ccc(OC)cc2)c1	-17.9%	-42.1%
Cc1cnc(CNC(=O)c2c(=O)c3ccc(N4CCCN(C)CC4)nc3n3c2sc2ccccc23)cn1	-11.7%[25.2 µM]	.
CCOc1cc(C2C(C(=O)OC)=C(C)NC3=C2C(=O)c2ccccc23)c(Br)cc1OC (centres undefined)	-33.7%	-12.2%
CCN(CC)C(=O)COc1ccc(-c2nnc(Nc3ccc(OC)c(C(=O)NC)c3)c3ccccc23)cc1	1.7%	?
CCOc1ccc(CCNC(=O)CN2C(=O)COc3ccc(S(=O)(=O)N4CCC(C)CC4)cc32)cc1	?	?
O=S(=O)(c1ccccc1)c1nc(-c2ccc(F)cc2)oc1NCc1ccccc1	-15.7%	-14.4%
O=C(NCc1ccccc1)C(=O)NCC(c1cccs1)S(=O)(=O)c1cccs1 (centres undefined)	-14.6%	-11.7%
CCOC(=O)C1CCCN(C(=O)c2nn(-c3ccc(OC)cc3)c(=O)c3c2c2ccccc2n3C)C1 (centres undefined)	-10.9%	?
CCN(C(=O)c1cn(-c2cccc(OC)c2)c(=O)c2ccccc12)c1ccccc1C	-13.8%	-8.8%
CCn1cc2nc(SCc3ccccc3Cl)n(Cc3ccc(OC)cc3)c(=O)c2n1	-24.9%	?
COc1ccc(-c2nc(CN3CCC(C(=O)NCCCN4CCN(c5ccccc5F)CC4)CC3)c(C)o2)cc1OC	-19.9%	?
COc1cccc(CNC(=O)CSc2nc(=O)[nH]c3c2CCC3)c1	-11.4%	1.3%
Cc1cccc(NC(=O)Cn2nc(N3CCN(c4ccccc4)CC3)ccc2=O)c1C	2.0%	3.1%
CSc1ncc(C(=O)N2CCN(c3ccc(Cl)cc3)CC2)c(C)n1	-1.1%	-17.7%
Cc1ccc(CN2CCSc3ccc(C(=O)NCCc4ccccc4)cc32)cc1	14.1%	-25.0%
CCOc1ccc(CCNC(=O)c2cn(C)c3ccc(S(=O)(=O)N4CCCCCC4)cc3c2=O)cc1OCC	-11.1%	4.7%
CC(C)CCNC(=O)c1ccc2c(c1)NC(=O)C(CS(=O)(=O)Cc1cccc(Br)c1)N2 (centres undefined)	6.5%	?
Cc1cccc(NC(=O)N2CCC(CN3CCc4ccccc4C3)CC2)c1C	-16.5%	-22.9%
CCn1ccc2cc(S(=O)(=O)N3CCC(C(=O)NCCc4ccc(C)cc4)CC3)ccc21	-4.1%	-11.3%
CN(C(=O)Cn1cc(S(=O)(=O)N2CCN(c3ccccc3F)CC2)c2ccccc2c1=O)c1ccc(Cl)cc1	0.8%	0.5%
CCCCOc1ccccc1C(=O)Nc1onc2c1CCCC2	-28.9%	-15.9%
CC(C)CNc1ccnc(NCc2csc(-c3ccccc3)n2)n1	?	.
O=C(NCCc1ccccc1)c1ccc2c(c1)N(Cc1ccccc1)C(=O)c1ccccc1S2=O (centres undefined)	?	?
COC(=O)c1ccccc1NC(=O)COCc1cc(-c2cccs2)on1	?	-15.8%
CCOc1ccccc1NC(=O)Nc1cc(C(=O)NCc2ccc(C)cc2)ccc1N1CCCC1	-31.7%	?
Cc1cc(C)cc(-n2ccnc2SCC(=O)Nc2cccc3ccccc23)c1	-28.1%	?
COc1ccccc1N1CCN(C(=O)c2sc3nc4n(c(=O)c3c2C)CCC4)CC1	0.9%	-1.2%
CC(C)CNc1cc(NC2CCCCC2)c2c3c(onc13)-c1ccccc1C2=O	-28.4%	-0.9%
COc1ccc(C)cc1N(C)C(=O)c1sc2nc3n(c(=O)c2c1C)CCCCC3	4.7%	0.6%
CCc1ccc(C2CC(=O)Nc3cc4c(cc32)OCO4)cc1 (centres undefined)	?	?
CC(=O)Nc1ccc(NC(=O)C2CCN(c3cnccn3)CC2)cc1	-3.6%	-6.2%
O=C(OCc1cc(=O)n2nc(-c3cccs3)sc2n1)c1ccccc1	-2.5%	-21.8%
Cc1cc(Cl)ccc1NS(=O)(=O)c1cc2[nH]c(=O)c(=O)[nH]c2cc1C	-5.0%	34.8%
COC(=O)c1ccc(CSc2nc3c(c(=O)[nH]2)CCC3)cc1	-7.1%	-0.6%
CCn1cc(C(=O)NCc2ccc(Cl)cc2)c(=O)c2cc(S(=O)(=O)N3CCc4ccccc4C3)ccc21	3.0%	2.5%
O=C(Nc1ccc(F)cc1)Nc1nnc(SCC(=O)N2CCCCC2)s1	-10.3%	17.3%
Cc1ccc(NC(=O)CSc2cn(CC(=O)N3CCCCCC3)c3ccccc23)cc1	-22.0%	-0.6%
CCCC(=O)N1CCc2cc(OC)c(OC)cc2C1COc1ccc2c(C)cc(=O)oc2c1 (centres undefined)	-4.1%	?
COc1ccc(C2=CC(c3ccccc3Cl)n3nc(-c4ccc(Cl)cc4)nc3N2)cc1 (centres undefined)	?	-61.8%
CCN(c1ccccc1)S(=O)(=O)c1ccc(NC(=O)c2nc(SC(C)C)ncc2Cl)cc1	?	9.0%
CCOC(=O)C1CCN(c2nc3c(S(=O)(=O)c4ccccc4)nnn3c3ccsc23)CC1	-3.3%	?
Cc1ccc(CNC(=O)C2CCC(CNS(=O)(=O)c3ccc4c(c3)CCCC(=O)N4)CC2)cc1 (centres undefined)	-5.7%	1.0%
CN(C)CCCNC(=O)c1ccc(-c2cc(O)c3ncccc3c2)cc1	-17.4%	.
Cc1ccc(C)c(NS(=O)(=O)c2cc3c4c(c2)C(C)C(=O)N4CCC3)c1 (centres undefined)	-14.2%	12.6%
Cc1ccc(-n2nc3c(N4CCC(C(=O)NCCc5ccccc5)CC4)nnc(C)c3c2C)cc1	?	?
CC(C)(C)OC(=O)N1CCC(c2c(C(=O)NCc3ccccn3)cnn2-c2ccccc2)CC1	-6.9%	-2.5%
CCOc1ccc(CNC(=O)C2CCCN(S(=O)(=O)N(CC)c3ccc(OCC)cc3)C2)cc1 (centres undefined)	?	?
COc1ccc(CC(=O)N2CCc3cc(OC)c(OC)cc3C2COc2ccc3c(C)cc(=O)oc3c2)cc1OC (centres undefined)	-18.9%	?
CC(=O)N1CCCc2cc(S(=O)(=O)N3CCCC(C(=O)Nc4ccc(C)c(F)c4)C3)ccc21 (centres undefined)	?	-2.9%
Cc1cc(C)n(-c2nc3ccccc3nc2Nc2cccc(C(F)(F)F)c2)n1	1.1%	-3.5%
O=c1[nH]c(SCc2ccccc2)nc2c1CCCC2	-10.4%	-22.8%
O=C(CCC1N=C2c3ccccc3N=C(SCc3ccc(F)cc3)N2C1=O)NCCc1ccccc1 (centres undefined)	-28.5%	?

# Additional records follow.
SMILES	HTT promoter inh	PMP22 txn prim
Cc1ccc(N2CC(C)Cn3c2nc2c3c(=O)n(CC(=O)O)c(=O)n2C)cc1 (centres undefined)	0.9%	-7.3%
CCCCC1CCC(C(=O)N2CC(=O)Nc3ccc(F)cc3C2c2ccc(F)cc2)CC1 (centres undefined)	?	?
CCOc1ccc(-c2cc(NC(=O)c3cccc(Cl)c3)c(C(=O)OC)s2)cc1	24.8%	-31.7%
COc1ccc(CC(=O)NCc2ccc3c(c2)CCN3C(=O)c2ccccc2)cc1OC	-11.3%	6.0%
COc1cc(C2c3c(-c4ccccc4O)n[nH]c3C(=O)N2Cc2ccncc2)cc(OC)c1OC (centres undefined)	1.4%	?
COc1ccc(Cl)cc1N(C)C(=O)c1ccc2c(=O)n3c(nc2c1)CCCCC3	-18.5%	3.0%
COc1cccc(NC(=O)c2c(C)nn(-c3cccc(C)c3)c2-n2cccc2)c1	?	-9.1%
CCOc1ccc(CCNC(=O)CN2C(=O)c3cccnc3Oc3ccc(C)cc32)cc1OCC	-2.0%	2.9%
O=C(Nc1ccc2nc(SCC(=O)N3CCOCC3)sc2c1)c1ccc(Br)cc1	?	-35.5%
COc1cccc(NC(=O)CNC(=O)Cn2c(C)cc3ccccc3c2=O)c1	-6.7%	-4.8%
Cc1cccc(CNC(=O)CCn2ccc3cc(S(=O)(=O)N4CCCC4)ccc32)c1	-26.1%	-9.5%
CNC(=O)COc1ccc(NC(=O)CCn2nc(-c3ccc(C)cc3)c3ccccc3c2=O)cc1	?	-16.4%
CCCCN(CC)CCNC(=O)c1cc2c(=O)[nH]c3ccccc3c2n1C	-3.9%	?
COc1cc(NC(=O)CCCSc2nc(-c3ccco3)cc(C(F)(F)F)n2)cc(OC)c1OC	?	?
COc1cccc(NS(=O)(=O)c2cc3c4c(c2)C(C)C(=O)N4CCC3)c1 (centres undefined)	?	-7.0%
CCOc1cc(N)c(Cl)cc1C(=O)NCC1CN(Cc2ccc(F)cc2)CCO1 (centres undefined)	-5.2%&-2.6%	.
CCOC(=O)c1sc(N2C(=O)c3oc4ccc(C)cc4c(=O)c3C2c2ccccc2F)nc1C (centres undefined)	5.4%	-13.9%
CC(C)c1ccc(S(=O)(=O)c2nnn3c2nc(NC2CCCC2)c2sccc23)cc1	-8.0%	-13.8%
CCOC(=O)C1=C(CN2CCN(c3cc(C)ccc3C)CC2)NC(=O)NC1c1ccc(Cl)cc1 (centres undefined)	?	?
CCN(Cc1ccccc1)C(=O)C1CCN(S(=O)(=O)c2ccc3c(c2)CCCN3C(C)=O)CC1	?	-10.7%
CN(C[C@@H]1COCCO1)S(=O)(=O)Nc1ccc2ccc3ncc(-c4cnn(C)c4)cc3c(=O)c2c1	14.8%	.
CCN(CC)CCNC(=O)c1cn(CC)c2ccc(S(=O)(=O)N3CCOCC3)cc2c1=O	-7.3%	-6.1%
Cc1ccc(Cl)cc1NC(=O)CN1C(=O)COc2ccc(S(=O)(=O)N3CCCCCC3)cc21	-19.4%	-24.0%
O=C(C=CC#Cc1cccc(NS(=O)(=O)c2ccccc2)c1)NO	-38.1%	.
O=C1c2[nH]nc(-c3ccccc3)c2C(c2ccccc2)N1c1cccc(C(F)(F)F)c1 (centres undefined)	?	?
CCOc1ccc(N(CC(=O)Nc2ccc(F)cc2F)S(=O)(=O)c2c(C)[nH]c(=O)[nH]c2=O)cc1	-21.2%[11.5 µM]	13.7%
COC1CCC(N(C(=O)C2CCC(C)CC2)c2cc(C3=CCCCC3)sc2C(=O)O)CC1 (centres undefined)	-25.5%	.
CCOc1ccccc1NC(=O)Cn1ncc2c(=O)oc3ccc(C)cc3c21	13.4%	-8.8%
CCOc1ccc(-c2cc3c(=O)n(Cc4nc(-c5ccc(OC(C)C)cc5)oc4C)ccn3n2)cc1Cl	-24.8%	-9.8%
Cc1cccc(NC(=O)CSc2nc3ccc(NC(=O)c4ccco4)cc3s2)c1	-5.4%	?
CCc1ccc(-c2[nH]c3c(c2-c2c(-n4cccc4)n(C)c(=O)[nH]c2=O)c(=O)[nH]c(=O)n3C)cc1	-2.2%	-38.8%
Cc1ccc(C)c(NC(=O)C2CCN(c3ncnc4c3nc3n4CCCCC3)CC2)c1	-2.3%	-13.9%
Cc1cccc(CSc2cn(CC(=O)N3CCCC3)c3ccccc23)c1	37.4%[activator]	?
CCOc1ccc(-c2cc3nc(C4CCN(C(=O)OC(C)(C)C)CC4)c(C(=O)Nc4ccc(C)c(F)c4)cn3n2)cc1	?	-29.7%
CC1=C(C(=O)Nc2cccnc2)C(c2cccc(Br)c2)n2nc(SCc3ccccc3)nc2N1 (centres undefined)	-6.4%	?
CCSc1nnc2c(n1)OC(c1ccc(C)s1)Nc1ccccc1-2 (centres undefined)	18.1%	-9.7%
